Screens (PubChem BioAssay)
PrP UTR inh: inhibition of PrP 5' UTR reporter expression; cell-based PrP 5' UTR mRNA reporter, plate reader; inhibition, % (no concentration beside the values); 340,000 tested, 0.35% active; AID 488862, 2010;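 active = every replicate at 50% or more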;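 note: 0 = median of the neutral control wells; tested in H4 reporter cells; numbers are from one replicate; inactives centre near -14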
Sa RN4220 lethal: growth inhibition of S. aureus RN4220, primary screen, OD600 | 330,000 tested, 0.33% active | inhibition, % (test concentration not listed) | 16 h;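 active = z-score of -3 or lower and OD600 up to 0.18 on both plates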;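 note: plate controls were untreated cells for no effect and reference antibiotic for full effect; stock transfer was 100 nL into about 80 µL; one replicate is shown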
BJeLR viability: MLPCN primary cell-based screen for lethality selective to Ras in HRASV12 cells; 300,000 tested, 0.17% active; inhibition, % (concentration not given with the values); AID 1554, 2009; BJeLR (HRASV12) viability, CellTiter-Glo ATP luminescence, 48 h; reference of the scale not given here;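 active = replicate mean above 50%; inconclusive = above 50% but judged a plate artefact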;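 note: 50 nL library stock added to about 25 µL; numbers are from one replicate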
Mtb hypoxia inh: PubChem AID 1159583; M. tuberculosis hypoxia-regulated fluorescent reporter, fluorescence; 300,000 tested, 0.1% active; fluorescence inhibition, % (concentration not given with the values);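 active = 35 to 45% if threefold the growth effect, above 45% if 1.5-fold the growth effect; inactive = the rest, general growth blockers included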;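 note: wells of about 50 µL received 100 nL stock; 0% = vehicle wells and 100% = reference inhibitor wells; whole bacteria with a GFP reporter of the hypoxia response; strong numbers were not always called active; many hits fall short of the cut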
Bead autofluor: counter-screen for toxin protease inhibitors: compound fluorescence. fluorescence intensity (no concentration beside the values). 360,000 tested, 3.1% active. compound autofluorescence counterscreen, microsphere flow cytometry; hits give high values;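 active = at least 3 SD above the mean of all compounds, about 16000 in these data; inconclusive = too few beads counted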;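 note: 100 nL of 1 mM stock went into each well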
Sa ugtP lethal: growth inhibition of ugtP-null S. aureus, primary screen, RN4220 ugtP deletion, OD600. 330,000 tested, 0.54% active. growth inhibition, % (test concentration not listed). 16 h; some inactives read as strong as hits. AID 1259309, 2017;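 active = z-score under -3 and OD600 up to 0.15 on both plates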;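 note: plate controls were untreated wells for no effect and antibiotic for full effect; wells of about 80 µL received 100 nL stock; the first replicate is given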
Mtb hypoxia inh growth: also measured in Mtb hypoxia inh; calls as there; growth inhibition, %; measured here: M. tuberculosis growth (absorbance);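 0% = vehicle and 100% = reference antibiotic; read after six days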
* = called active by the depositor; ? = inconclusive; . = no result given; & = joins results of further samples.

mol | PrP UTR inh | Sa RN4220 lethal | BJeLR viability | Mtb hypoxia inh | Mtb hypoxia inh growth | Bead autofluor | Sa ugtP lethal
CC(OC(=O)CNC(=O)C12CC3CC(CC(C3)C1)C2)C(=O)Nc1ncc(Cl)cc1Cl (stereo unspecified) | -23 | 1.7 | -7 | 4 | 5 | 18610* | 1
Cc1ccc(-n2c(O)c(C=NC3CCS(=O)(=O)C3)c3ccccc3c2=O)c(C)c1 (stereo unspecified) | -23 | -1.5 | 12 | -7 | 10 | 4173 | -2
CCCCN1C[C@H](O)[C@@H](O)[C@H](O)[C@H]1CO | -13 | . | -1 | . | . | 4289 | .
COc1ccc(CC(=O)Nc2cc(S(=O)(=O)N3CCCCC3)ccc2C)cc1 | 9 | -0.6 | . | -16 | -4 | 6697 | 2
Cc1cc(C)cc(N2C(=O)N(c3ccccc3C)C3CS(=O)(=O)CC32)c1 (stereo unspecified) | -17 | 3.7 | -1 | 0 | 2 | 7791 | 1
COc1c(Cl)cc(C(=O)NCc2ccco2)cc1Cl | -12 | . | -1 | . | . | 3482 | .
Cc1nc(SCC(=O)Nc2ccc3c(c2)OCCO3)nc(C)c1C | -15 | -8.2 | 6 | -9 | -5 | 3433 | -1
CCOC(=O)c1cccc(NC(=O)c2ccccc2C)c1 | -18 | 3.5 | -2 | 11 | 2 | 3341 | 3
CCN(CC)CCNC(=O)c1cc2ccccc2nc1Cl | -13 | 3.7 | -9 | 8 | 5 | 4288 | 9
COc1ccc(C(CNC(=O)c2ccc(-c3ccccc3)cc2)N(C)C)cc1OC (stereo unspecified) | -5 | -6.2 | 2 | -6 | 8 | 6723 | 1
CC(=O)n1nc(-c2ccc(C)cc2)nc1NCc1ccc(F)cc1 | -32 | 7.4 | -1 | -13 | -5 | 3190 | 13
CCC(=O)C1CCCN(C(=O)c2ccc(OC3CCN(C(=O)c4cccnc4)CC3)cc2)C1 (stereo unspecified) | -16 | 7.4 | 2 | 6 | 5 | 3799 | 2
O=C(/C=C/c1c(Cl)cccc1Cl)NCCc1ccccc1 | -58 | 4.8 | 1 | 8 | 11 | 20277* | -8
O=c1c([N+](=O)[O-])c(O)c2cccc3c2n1CCC3 | -10 | 0.8 | 6 | -5 | -2 | 3328 | 11
COCCNc1nc2c(c(=O)[nH]c(=O)n2C)n1CCCc1ccccc1 | -17 | 0.4 | -5 | 7 | 12 | 3456 | 5
OC(CNc1ccccc1)Cn1ccc2ccccc21 (stereo unspecified) | -10 | -0.5 | 5 | -9 | -2 | 3840 | 5
Cc1ccsc1/C=C(\C(=O)c1ccc(OC(C)C)cc1)c1nc2ccccc2o1 | -5 | . | -6 | . | . | 2096 | .
Cc1cc(O)c(C(C)C)cc1C1(c2cc(C(C)C)c(O)cc2C)OC(=O)c2ccccc21 | -18 | . | 0 | . | . | 3215 | .
CCO[C@H]1OC(C(=O)N2CCOCC2)=C[C@@H](c2ccc(Br)cc2)[C@@H]1CCCO | -13 | . | -1 | . | . | 3407 | .
CC1(C)CC(=O)C(C=Nn2cnc3ccccc3c2=O)=C(O)C1 | . | 5.3 | . | 6 | 5 | . | 1
COC(=O)C1=C(COc2ccc(C=O)cc2OC)NC(=O)NC1c1cc(C)ccc1C (stereo unspecified) | -5 | 5.6 | -1 | 9 | -1 | 2211 | 7
CCc1c(O)nc(SCC(=O)NCc2ccco2)[nH]c1=O | -11 | -0.2 | -7 | 7 | 1 | 3274 | -3
COc1ccc(CNC(=O)CN(Cc2ccc(Cl)cc2)S(C)(=O)=O)cc1 | -4 | 2.0 | 0 | 5 | 7 | 2358 | -1
CCOC(=O)c1c(N)sc2c(OCC)c(Br)ccc12 | -26 | -5.2 | -3 | 11 | 6 | 11007 | 36
Cc1nnc(N/N=C/c2cccc(OCc3ccc(Cl)c(Cl)c3)c2)n1N | -11 | . | 0 | . | . | 7867 | .
CCOc1ccc(Nc2oc(-c3ccccc3Cl)nc2C#N)cc1 | . | 1.7 | -11 | 7 | 2 | . | 10
O=C1O[C@@H](c2ccc(O)cc2)Cc2cccc(O)c21 | -25 | -8.8 | . | 12 | 6 | 4397 | 2
CN(C)S(=O)(=O)c1ccc(NC(=O)CN2CCN(C(c3ccccc3)c3ccccc3)CC2)cc1 | -26 | 0.8 | 1 | 6 | 3 | ? | 19
COc1ccccc1-n1c(SCC(=O)NC(C)(C)C)nc(O)c(Cc2ccccc2)c1=O | -25 | 10 | -6 | -8 | -3 | 4514 | 2
CCC(=O)NCC(=O)OCC(=O)c1ccccc1 | 2 | -0.4 | -1 | . | . | 4270 | 11
COc1ccc(-c2nc(C#N)c(N3CCc4ccccc4C3)o2)cc1OC | -8 | -2.5 | -4 | -4 | -6 | 17078* | -25
CN(C)c1ccc(/C=N/NC(=S)NCc2ccccc2)cc1 | -8 | . | -16 | . | . | 10094 | .
CCN(CC(=O)NCCc1ccc(Cl)cc1)Cc1nc2ccccc2c(=O)[nH]1 | -14 | 5.4 | -1 | -5 | 9 | 4153 | 8
C=CCn1c(SCC#N)nnc1-c1ccc2ncccc2c1 | -13 | -2.6 | -3 | -3 | 6 | 4228 | -3
O=C(O)Cn1c(CC(=O)N2CCCC2)nc2ccccc21 | -24 | -2.0 | 3 | -2 | -5 | 9259 | -1
COc1ccc(CCNC(=O)C2CCCN(c3nn4c(=O)cc(C)nc4s3)C2)cc1OC (stereo unspecified) | -7 | -7.9 | -4 | 9 | 3 | 3144 | -4
O=C(Cc1cccc(NC(=O)C2CCCN(C(=O)c3ccccc3)C2)c1)Nc1ccc(C(=O)N2CCOCC2)cc1 (stereo unspecified) | -20 | 0.8 | . | -1 | 0 | 4121 | 2
COc1ccc(N2CCN(C(=O)CCc3cc(OC)c(OC)c(OC)c3)CC2)cc1 | -20 | -0.4 | -4 | 15 | 8 | 4011 | -2
CCN1CCN(c2ccc(NC(=O)c3ccccc3F)cc2Cl)CC1 | -85 | 2.0 | -2 | 4 | 4 | 4613 | 7
CCS(=O)(=O)NCC(c1cccnc1)N1CCN(c2ccccc2F)CC1 (stereo unspecified) | -9 | 6.8 | -2 | 3 | 6 | 2837 | 6
CCOc1ccccc1/C=N/n1c(C2CCCCC2)n[nH]c1=S | -7 | . | -4 | . | . | 4092 | .
O=c1c(OC2OC(CO)C(O)C(O)C2O)c(-c2ccc(O)cc2)oc2cc(O)cc(O)c12 (stereo unspecified) | . | -0.9&9.8 | . | -1&6 | -2&2 | . | -4&5
CC(=O)Nc1cccc(NC(=O)Cc2ccc3ccccc3c2)c1 | -8 | 0.9 | -2 | 9 | 16 | 3643 | 4
COc1ccc(NS(=O)(=O)c2cccc(C(=O)Nc3ccccc3C(=O)O)c2)cc1 | -2 | 6.3 | 0 | -4 | 2 | 4460 | 3
Cc1cc(C)c(S(=O)(=O)NCC(c2cccnc2)N2CCN(Cc3ccccc3)CC2)c(C)c1 (stereo unspecified) | -3 | 3.5 | 6 | 6 | 1 | 5825 | -1
CCCN(CCC)CCCNC(=O)c1cn(CC)c2ccc(S(=O)(=O)N3CCc4ccccc4C3)cc2c1=O | -49 | 1.7 | 5 | -6 | 18 | 3942 | 1
CSc1sc(C(=O)O)c(C)c1C(C)=O | -13 | -3.0 | -4 | -5 | 4 | 3276 | -3
O=C(NCCCNCc1ccccc1)c1ccc(C=NO)nc1 | . | 2.8 | . | 7 | -4 | . | 3
CCCNc1nc(-c2cc(-c3ccc(Cl)cc3)on2)cc(C(C)C)n1 | -19 | -3.3 | 3 | -1 | 4 | 2693 | 2
Cc1ccsc1C=NNC(=O)c1nnn(-c2nonc2N)c1C(C)C | . | 6.2 | . | -6 | 9 | . | 0
COC(=O)C1=C(c2ccc(F)cc2OCc2ccccc2)C[C@@H]2CC[C@H]1N2C(=O)NCc1ccc(OC)c(OC)c1 | -2 | 5.3 | . | 0 | -3 | 4049 | 10
CC1=C(C#N)C(c2cccnc2)C2=C(CCCC2=O)N1 (stereo unspecified) | -4 | 5.0 | . | . | . | 3583 | 0
Cc1nc2ccc(NC(=O)Cc3ccc4c(c3)OCCO4)cc2s1 | 6 | -0.1 | 1 | 6 | 5 | 3430 | 7
O=C(CSc1ccc2nnc(-c3cccc(F)c3)n2n1)NCC1CCCO1 (stereo unspecified) | -30 | 3.2 | 3 | 0 | 2 | 22186* | 4
O=c1[nH]ccc2c(O)cccc12 | -20 | 3.8 | 14 | 6 | -7 | 6759 | 2
CCCn1ncc(CN2CCC(n3nccc3NC(=O)c3ccccc3OC)CC2)c1C | -9 | 2.5 | -7 | 6 | 5 | 4888 | 3
CCn1cnc2cc(NCc3ccc(OC)cc3)ccc21 | -20 | -1.4 | -11 | 0 | 11 | 23891* | 5
COc1cc2c(cc1OC)-c1cc(OCc3cccnc3)nc(=O)n1CC2 | -5 | 6.0 | . | -1 | 0 | 6443 | 8
COc1ccc(C(=O)N2CC(=O)N(CCc3ccccc3)C(=O)C2)cc1OC | -14 | 1.0 | 0 | . | . | 2676 | 4
O=C1c2ccccc2C(=O)N1Cc1ccccn1 | -37 | 5.8 | -4 | 4 | 1 | 4308 | 10

Following part.
mol | PrP UTR inh | Sa RN4220 lethal | BJeLR viability | Mtb hypoxia inh | Mtb hypoxia inh growth | Bead autofluor | Sa ugtP lethal
COC(OC)C1Nc2ccccc2C(=O)N1c1ccc(F)cc1 (stereo unspecified) | -7 | 4.1 | . | 8 | 2 | ? | 8
CS(=O)(=O)c1ccc(C(=O)OCc2nnc(-c3ccccc3)o2)cc1[N+](=O)[O-] | -8 | 0.4 | 10 | -2 | -7 | 3172 | 0
CC(=O)c1ccccc1C(=O)N1CCCC(CNC(=O)c2ccccc2Cl)C1 (stereo unspecified) | -33 | 3.3 | 8 | 1 | -1 | 5770 | 4
COc1cccc(C=NNC(=O)c2cccc([N+](=O)[O-])c2)c1OS(=O)(=O)c1ccc(C)cc1 | . | 2.6 | . | 1 | 11 | . | -8
Cc1ccc(Cc2cncc(O)c2)cc1S(=O)(=O)O | 1 | 0.8 | 3 | 15 | 13 | . | 0
CCOc1ccc(N2CC(C(=O)NCCc3ccc(S(N)(=O)=O)cc3)CC2=O)cc1 (stereo unspecified) | -20 | -0.7 | -5 | 3 | 1 | 3886 | 7
Cc1ccccc1C(N)c1ccncc1 (stereo unspecified) | -3 | 4.9 | 0 | 5 | -4 | 2870 | 15
COc1ccc(S(=O)(=O)NCC(c2cccnc2)N2CCN(Cc3ccccc3)CC2)cc1 (stereo unspecified) | -6 | 4.5 | -4 | -4 | 6 | 7479 | 3

Some entries already given, limited to Sa RN4220 lethal, PrP UTR inh and BJeLR viability.
canonical_smiles	Sa RN4220 lethal	PrP UTR inh	BJeLR viability
CS(=O)(=O)c1ccc(C(=O)OCc2nnc(-c3ccccc3)o2)cc1[N+](=O)[O-]	0.4	-8	10
CC(=O)c1ccccc1C(=O)N1CCCC(CNC(=O)c2ccccc2Cl)C1 (stereo unspecified)	3.3	-33	8
COc1cccc(C=NNC(=O)c2cccc([N+](=O)[O-])c2)c1OS(=O)(=O)c1ccc(C)cc1	2.6	.	.
Cc1ccc(Cc2cncc(O)c2)cc1S(=O)(=O)O	0.8	1	3
CCOc1ccc(N2CC(C(=O)NCCc3ccc(S(N)(=O)=O)cc3)CC2=O)cc1 (stereo unspecified)	-0.7	-20	-5
Cc1ccccc1C(N)c1ccncc1 (stereo unspecified)	4.9	-3	0

Profiles as entered above. Screens in order: PrP UTR inh	Sa RN4220 lethal	BJeLR viability	Mtb hypoxia inh	Mtb hypoxia inh growth	Bead autofluor	Sa ugtP lethal
Shown for `Cc1ccsc1C=NNC(=O)c1nnn(-c2nonc2N)c1C(C)C` → .	6.2	.	-6	9	.	0
Shown for `OC(CNc1ccccc1)Cn1ccc2ccccc21` (stereo unspecified) → -10	-0.5	5	-9	-2	3840	5
Shown for `COc1ccc(CNC(=O)CN(Cc2ccc(Cl)cc2)S(C)(=O)=O)cc1` → -4	2.0	0	5	7	2358	-1
